Assay outcomes deposited in PubChem BioAssay by several laboratories.
Sa ugtP lethal: kills S. aureus RN4220 lacking UgtP. S. aureus RN4220 ugtP deletion, OD600 growth, 16 h; some inactives read as strong as hits. growth inhibition, % (no concentration beside the values). actives 0.54% (n = 330,000). AID 1259309;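 active = z-score under -3 and OD600 up to 0.15 on both plates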;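 also: plate controls were untreated wells for no effect and antibiotic for full effect; wells of about 80 µL received 100 nL stock; the first replicate is given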
PrP UTR inh: suppresses PrP 5' UTR mRNA reporter expression; cell-based PrP 5' UTR mRNA reporter, plate reader; inhibition, % (no concentration beside the values); actives 0.35% (n = 340,000); AID 488862;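 active = every replicate at 50% or more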;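 also: 0 = median of the neutral control wells; tested in H4 reporter cells; numbers are from one replicate; inactives centre near -14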
RN4220 kill: kills Staphylococcus aureus RN4220; S. aureus RN4220 growth, OD600, 16 h; inhibition, % (concentration not given with the values); actives 0.33% (n = 330,000);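 active = z-score of -3 or lower and OD600 up to 0.18 on both plates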;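 also: plate controls were untreated cells for no effect and reference antibiotic for full effect; stock transfer was 100 nL into about 80 µL; one replicate is shown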
BJeLR viability: kills HRASV12-expressing BJeLR cells. BJeLR (HRASV12) viability, CellTiter-Glo ATP luminescence, 48 h; reference of the scale not given here. inhibition, % (concentration not given with the values). actives 0.17% (n = 300,000). AID 1554;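 active = replicate mean above 50%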;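 also: 50 nL library stock added to about 25 µL; numbers are from one replicate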
Autofluor counter: compound fluorescence in toxin protease inhibitor counterscreen. actives 3.1% (n = 360,000). compound autofluorescence counterscreen, microsphere flow cytometry; active compounds read high. fluorescence intensity (concentration not given with the values);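 active = at least 3 SD above the mean of all compounds, about 16000 in these data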;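 also: 100 nL of 1 mM stock went into each well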
Mtb hypoxia rep: Mtb hypoxia fluorescent reporter inhibition. M. tuberculosis hypoxia-regulated fluorescent reporter, fluorescence. fluorescence inhibition, % (test concentration not listed). actives 0.1% (n = 300,000);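 active = 35 to 45% if threefold the growth effect, above 45% if 1.5-fold the growth effect; inactive = the rest, general growth blockers included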;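 also: wells of about 50 µL received 100 nL stock; 0% = vehicle wells and 100% = reference inhibitor wells; whole bacteria with a GFP reporter of the hypoxia response; strong numbers were not always called active; many hits fall short of the cut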
Mtb hypoxia rep growth: further read-out of Mtb hypoxia rep, marked with its call; growth inhibition, %; measured here: M. tuberculosis growth (absorbance);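 0% = vehicle and 100% = reference antibiotic; read after six days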
An asterisk follows results filed as active; x = no result given; & = joins results of further samples. Only part of the results is shown. The share of hits here may be higher or lower than overall.

A first look, 2 compounds:
SMILES	Mtb hypoxia rep	BJeLR viability	Autofluor counter	Sa ugtP lethal	RN4220 kill	Mtb hypoxia rep growth	PrP UTR inh
CC1=NN(c2ccccc2)C(=O)C1	x	9	6263	x	x	x	-2
CN1CCC(=C2c3ccccc3CCc3sccc32)CC1	15	-15	6124	9	-4.1	-2	9

Results, previewed entries included:
SMILES	Mtb hypoxia rep	BJeLR viability	Autofluor counter	Sa ugtP lethal	RN4220 kill	Mtb hypoxia rep growth	PrP UTR inh
CC1=NN(c2ccccc2)C(=O)C1	x	9	6263	x	x	x	-2
CN1CCC(=C2c3ccccc3CCc3sccc32)CC1	15	-15	6124	9	-4.1	-2	9
CN(C)C/C=C(/c1ccc(Br)cc1)c1cccnc1	x	2	5367	x	x	x	-24
CC1(C)OC2CC3C4CC(F)C5=CC(=O)C=CC5(C)C4(F)C(O)CC3(C)C2(C(=O)CO)O1 (centres undefined)	-4	-11	3546	6	2.1	0	10
CCOc1ccc(S(=O)(=O)N2CCCCCC2)c2ccccc12	1	-10	16666*	16	2.7	-4	9
O=C(O)C1C(O)CCC2CN3CCc4c([nH]c5ccccc45)C3CC21 (centres undefined)	7	x	x	18	7.7	3	x
CN(C)CCCSc1ccccc1NC(=O)C=Cc1ccccc1	1	x	x	-3	4.6	-1	x
CC1(C)Oc2ccc(C#N)cc2C(N2CCCC2=O)C1O (centres undefined)	-6	x	x	2	4.5	2	x
CC(C)Cn1cnc2c1c(=O)n(C)c(=O)n2C	4	13	6095	-1	2.1	3	-8
COc1c(O)cc2c(c1O)C1OC(CO)C(O)C(O)C1OC2=O (centres undefined)	-1	x	5727	-5	5.2	-2	-9
COc1ccccc1OCC(O)COC(N)=O (centres undefined)	1	-21	4305	5	7.5	-1	10
O=C1N(c2ccccc2)c2ccccc2C1(Cc1ccncc1)Cc1ccncc1	-4&0	17&6	5301	5&0	12&3.3	-5&-1	-29
CCC1C(=O)OCC1Cc1cncn1C (centres undefined)	3&1	x	x	3&0	3.0&5.9	3&-3	x
CCCCCCCCO	9	x	5835	-2	1.2	15	-11
CCCn1ncc(CN2CCCC(C(=O)c3cccc(OC(C)C)c3)C2)c1C (centres undefined)	11	1	6329	-2	0.7	3	-4
CC(=O)C1CCC2C3CC(C)C4=CC(=O)CC[C@]4(C)C3C(O)C[C@]12C (some centres undefined)	6	x	x	-3	13	9	x
CC(=O)O[C@]1(C(C)=O)CC[C@H]2[C@@H]3C=C(Cl)C4=CC(=O)[C@@H]5C[C@@H]5[C@]4(C)[C@H]3CC[C@@]21C	x	0	5975&4183	x	x	x	9&2
CCCC(NC(C)C(=O)N1C(C(=O)O)CC2CCCCC21)C(=O)OCC (centres undefined)	-2	x	x	7	6.9	7	x
Cc1onc(-c2ccccc2Cl)c1C(=O)NC1C(=O)N2C1SC(C)(C)C2C(=O)O (centres undefined)	6&-7	x	x	100*	99*	5&4	x
N=C(N=C(N)N)N1CCOCC1	7	-2	5364	-1	7.5	-1	-24

Reformatted: results already given.
CCC1C(=O)OCC1Cc1cncn1C (centres undefined)
  Mtb hypoxia rep: 3&1
  BJeLR viability: x
  Autofluor counter: x
  Sa ugtP lethal: 3&0
  RN4220 kill: 3.0&5.9
  Mtb hypoxia rep growth: 3&-3
  PrP UTR inh: x
CCCCCCCCO
  Mtb hypoxia rep: 9
  BJeLR viability: x
  Autofluor counter: 5835
  Sa ugtP lethal: -2
  RN4220 kill: 1.2
  Mtb hypoxia rep growth: 15
  PrP UTR inh: -11
CCCn1ncc(CN2CCCC(C(=O)c3cccc(OC(C)C)c3)C2)c1C (centres undefined)
  Mtb hypoxia rep: 11
  BJeLR viability: 1
  Autofluor counter: 6329
  Sa ugtP lethal: -2
  RN4220 kill: 0.7
  Mtb hypoxia rep growth: 3
  PrP UTR inh: -4
CC(=O)C1CCC2C3CC(C)C4=CC(=O)CC[C@]4(C)C3C(O)C[C@]12C (some centres undefined)
  Mtb hypoxia rep: 6
  BJeLR viability: x
  Autofluor counter: x
  Sa ugtP lethal: -3
  RN4220 kill: 13
  Mtb hypoxia rep growth: 9
  PrP UTR inh: x

Entries listed so far that have four or more nitrogen atoms (2):
SMILES	Mtb hypoxia rep	BJeLR viability	Autofluor counter	Sa ugtP lethal	RN4220 kill	Mtb hypoxia rep growth	PrP UTR inh
CC(C)Cn1cnc2c1c(=O)n(C)c(=O)n2C	4	13	6095	-1	2.1	3	-8
N=C(N=C(N)N)N1CCOCC1	7	-2	5364	-1	7.5	-1	-24

Continuation:
SMILES	Mtb hypoxia rep	BJeLR viability	Autofluor counter	Sa ugtP lethal	RN4220 kill	Mtb hypoxia rep growth	PrP UTR inh
CN(C)CCCN1c2ccccc2Sc2ccccc21	7	6	4262	-8	2.1	3	13
Cc1coc2c1C(=O)C(=O)c1c-2ccc2c1CCCC2(C)C	x	11	5118	28	-10	x	-31
COc1cc2nc(N3CCN(C(=O)C4COc5ccccc5O4)CC3)nc(N)c2cc1OC (centres undefined)	8&-1	-3	5839	2&-1	2.7&3.0	5&-3	-11
O=C1NCC2(CCN(CCc3ccccc3)CC2)O1	8	1	5684	0	6.8	-2	-35
COc1nc(C)nc(Cl)c1NC1=NCCN1	-1&5	-19	6037&4728	-2&5	3.8&6.3	3&16	-6&6
CC(C)=CC(=O)O[C@@H]1Cc2cc3ccc(=O)oc3cc2OC1(C)C	1	x	2889	13	1.2	-4	-11
NS(=O)(=O)c1cc2c(cc1C(F)(F)F)NC(Cc1ccccc1)NS2(=O)=O (centres undefined)	-1	2	4411	-2	3.3	1	-4
CCCOc1ccccc1-c1nc2n[nH]nc2c(=O)[nH]1	0	14	5795	0	9.9	5	-20
C=C1c2cccc(O)c2C(=O)C2C(=O)[C@]3(O)C(=O)C(C(N)=O)C(=O)C(N(C)C)C3C(O)C12 (some centres undefined)	x	x	x	89	100*	x	x
Cc1nc2c3ccccc3nc(NNC(=O)CCC(=O)N3CCN(c4ccccc4)CC3)n2n1	-2	8	4524	11	6.4	-4	-8
Cc1nnc(NS(=O)(=O)c2ccc(N)cc2)s1	x	5	5914	6	1.7	x	-25
CC1(C)O[C@H]2CC(=O)OCC23[C@H]2CC[C@@]4(C)[C@H](c5ccoc5)OC(=O)[C@H]5O[C@]54[C@]2(C)C(=O)C[C@@H]13 (some centres undefined)	x	4	4135	8	3.0	x	-10
CCOC(=O)C1(CCOc2ccccc2)CCN(Cc2ccc(O)c(Cl)c2)CC1	11	9	3436	3	0.8	9	-16
COc1cc(N)c(Cl)cc1C(=O)NC1CCN(CCCOc2ccc(F)cc2)CC1OC (centres undefined)	-9	x	x	0	7.9	3	x
Nc1ccc(C(=O)Nc2ccccc2N)cc1	5	10	3669	13	0.1	-1	-27
C/C=C/C=N\NC(=O)c1ccncc1	x	-2	5419	x	x	x	-17
O=c1cc[nH]c(=O)[nH]1	7	-13	5826	2	7.9	-2	-18
c1ccc2c(CC3=NCCN3)cccc2c1	-3	12	4367	2	3.9	1	2
CC(=O)[C@H]1CC[C@H]2[C@@H]3C[C@H](C)C4=CC(=O)CC[C@]4(C)[C@H]3[C@@H](O)C[C@]12C	x	1	4270	x	x	x	-15
Nc1cc(-c2ccncc2)c[nH]c1=O	-4	5	5922	1	3.7	0	1
C[C@]12CC[C@H]3[C@@H](CCC4=CC(=O)CC[C@@]43C)[C@@H]1CC[C@@H]2C(=O)CO	x	3	8279	x	x	x	76*
CC(Oc1c(Cl)cccc1Cl)C1=NCCN1 (centres undefined)	11	2	x	-4	4.0	2	x

4 entries out of the list, sorted by number of heavy atoms, largest number first:
SMILES	Mtb hypoxia rep	BJeLR viability	Autofluor counter	Sa ugtP lethal	RN4220 kill	Mtb hypoxia rep growth	PrP UTR inh
CC1(C)O[C@H]2CC(=O)OCC23[C@H]2CC[C@@]4(C)[C@H](c5ccoc5)OC(=O)[C@H]5O[C@]54[C@]2(C)C(=O)C[C@@H]13 (some centres undefined)	x	4	4135	8	3.0	x	-10
CC(C)=CC(=O)O[C@@H]1Cc2cc3ccc(=O)oc3cc2OC1(C)C	1	x	2889	13	1.2	-4	-11
CN(C)CCCN1c2ccccc2Sc2ccccc21	7	6	4262	-8	2.1	3	13
c1ccc2c(CC3=NCCN3)cccc2c1	-3	12	4367	2	3.9	1	2
